Env fusion inh – blocks HIV Env-driven cell-cell fusion | AID 651610 | HeLa-JRFL Env/CEM21 cell fusion, luciferase | inhibition, % at 12.3 µM | 1.1% of 360,000 active;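 active means mean replicate inhibition score of at least 50 and every replicate individually at or above 50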;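 further: 0% = plate neutral controls and 100% = maraviroc near 300 nM; one replicate is shown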
eIF4H FP inh – inhibitors of RNA binding by human eIF4H; eIF4H fluorescence polarization binding assay; inhibition, % at 35 µM; Q15056; 0.94% of 290,000 active;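 active means 50% or more with normal probe brightness, or confirmed in later tests; about a fifth of its hits are not listed in these tables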;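 further: calls also rest on retests at 20 µM and on dose response follow-up; 0% = protein and probe with vehicle and 100% = probe without protein; strong numbers were not always called active; many hits fall short of the cut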
CSC inhib – cancer stem cell inhibition | cancer stem cell-like cells viability, luminescence | inhibition, % at 7.5 µM | 1.1% of 300,000 active;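 active means mean at 75% or more and at least half the replicates too; tested in HMLE shEcad cells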;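 further: 0% = median of negative and 100% = median of positive control wells; the first replicate is given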
Yeast UUG start – yeast start codon fidelity modulation; S. cerevisiae UUG-firefly luciferase reporter, luminescence/redox ratio; activity score, % at 18.7 µM; 0.13% of 350,000 active;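 active means replicate mean at a twofold rise or more, about +100% in these data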;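 further: firefly luciferase made from a UUG start codon reports start codon fidelity; reporter light over untreated wells divided by growth signal over untreated wells; some hits fall short of that in this replicate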
PABP FP inh – blocks human PABP binding to poly(A) RNA; fluorescence polarization; inhibition, % at 35 µM; 1% of 290,000 active; AID 2014;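 active means 50% or more with normal probe brightness, or confirmed in later tests; about a fifth of its hits are not listed in these tables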;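 further: calls also rest on retests at 20 µM and on dose response follow-up; controls were probe without protein and protein plus probe with vehicle; some compounds called inactive have numbers as strong as hits; many hits fall short of the cut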
Target sequence (P11940 whole entry, looked up): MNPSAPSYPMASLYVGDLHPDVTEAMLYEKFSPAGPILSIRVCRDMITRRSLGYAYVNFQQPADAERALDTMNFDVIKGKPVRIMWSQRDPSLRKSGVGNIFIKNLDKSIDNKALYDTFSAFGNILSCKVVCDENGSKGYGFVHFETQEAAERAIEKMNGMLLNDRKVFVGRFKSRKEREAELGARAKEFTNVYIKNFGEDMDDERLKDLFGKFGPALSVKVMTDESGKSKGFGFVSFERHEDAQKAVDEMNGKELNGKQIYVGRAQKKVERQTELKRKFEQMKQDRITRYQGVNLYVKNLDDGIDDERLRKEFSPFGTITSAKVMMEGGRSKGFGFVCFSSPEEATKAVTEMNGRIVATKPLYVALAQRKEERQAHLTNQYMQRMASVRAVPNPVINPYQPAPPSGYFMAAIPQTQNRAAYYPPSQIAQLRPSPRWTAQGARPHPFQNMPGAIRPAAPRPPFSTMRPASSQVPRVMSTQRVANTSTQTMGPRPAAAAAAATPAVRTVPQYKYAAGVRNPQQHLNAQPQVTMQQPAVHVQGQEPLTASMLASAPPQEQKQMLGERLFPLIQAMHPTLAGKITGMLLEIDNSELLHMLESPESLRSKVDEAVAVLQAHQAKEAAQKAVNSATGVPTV
MT1-MMP act inh – MT1-MMP (human) activation inhibition; GFP/RFP ratio change, % at 20 µM; AID 651647; HT1080 RFP-PRO-GFP cells, GFP/RFP ratio fluorescence, overnight; percent of plate control window, DMSO zero; 0.061% of 360,000 active;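 active means GFP/RFP ratio change of at least 30% with cell ATP level not reduced by more than half and red fluorescence within 50% of control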; further: strong numbers were not always called active
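Test system: HT1080 RFP-PRO-GFP cells; Benchmarks: DMSO and RFP-L50D-GFP cell wells; Timing: cells overnight before dosing, compound overnight, 37 °C, 5% CO2; Compound: one 20 µM compound dose with 1% DMSO; Read-out: GFP/RFP fluorescence ratio.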
Rce1 inh – blocks yeast Ras-converting enzyme; 0.27% of 290,000 active; Q03530; AID 2563; calls only; yeast membranes, quenched prenylated peptide cleavage fluorescence;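 active means fall in fluorescence gain of 50% or more versus controls, with final raw signal at or below 3038400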;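 further: plate controls were neutral control wells for no effect and wells lacking membranes for full effect; tested at 10 µM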
eIF4H FP inh retest – second read-out of eIF4H FP inh, no call of its own (marks repeat the call); inhibition, %; compound at 20 µM; confirmation average;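 mean of two retest wells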
PABP FP inh retest – also measured in PABP FP inh; calls as there; inhibition, %; compound at 20 µM; confirmation repeats;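 mean of two retest wells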
MT1-MMP act inh RFP – recorded beside MT1-MMP act inh, whose call it bears; RFP signal change, %; measured here: RFP expression control read;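 0 = vehicle wells; hits needed this value within 50% of zero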
* marks the source's active call; other numbers are inactive results; i = inactive; nt = no result given.

SMILES | Env fusion inh | eIF4H FP inh | CSC inhib | Yeast UUG start | PABP FP inh | MT1-MMP act inh | MT1-MMP act inh RFP | Rce1 inh | others
Cc1ccc2cc(CCNC(=O)CC(C)(C)C)c(=O)[nH]c2c1C | 3 | -7 | -3 | -6 | -18 | 2 | 4 | i
O=C(NCCNc1ccc(Cl)cc1[N+](=O)[O-])c1ccccc1F | 1 | 5 | -4 | -13 | 9 | 7 | -3 | i
O=C(Cn1c(=O)oc2cc(S(=O)(=O)N3CCCC3)ccc21)NCc1ccccn1 | -42 | -8 | 0 | -14 | -8 | 2 | 7 | i
CCOc1ccc(C(CCc2ccccc2)NC(=O)c2ccccc2)cc1OCC (stereo unspecified) | 6 | 10 | -4 | -15 | -11 | -10 | -2 | i
CC(C)C1Nc2ccc(C(=O)N3CCN(c4ccccn4)CC3)cc2NC1=O (stereo unspecified) | 10 | -2 | -5 | 3 | 1 | 1 | 0 | i
O=c1[nH]nc(SCc2cc(Cl)ccc2Cl)c(=O)[nH]1 | 15 | -10 | 9 | nt | -15 | 3 | 0 | i
CCn1cc(S(=O)(=O)CC(=O)Nc2cc(C)on2)c2ccccc21 | -45 | 1 | 6 | -10 | -4 | 4 | 6 | i
CC(=O)NS(=O)(=O)c1ccc2sc(C)nc2c1 | 10 | -7 | -16 | -11 | 6 | 3 | 4 | i
Cc1ccc(CSc2nnc(-c3ccccc3N)c(=O)[nH]2)cc1 | -32 | 17 | -17 | -6 | 23 | 2 | -2 | i
Cn1c(CCNC(=O)c2ccccc2)nc2cc(NC(=O)c3ccco3)ccc21 | -45 | -4 | -5 | -5 | -4 | -1 | -1 | i
c1cc2c(cc1CN1CCOCC1)OCO2 | nt | 7 | -7 | -14 | 1 | 2 | 5 | i
COc1ccccc1NC(=O)Nc1nnc([C@H]2C[C@H](O)[C@@H](CO)O2)s1 | -2 | nt | nt | -2 | nt | 1 | 3 | nt
O=C(N/N=C/c1ccc(Br)cc1)c1cc[n+]([O-])cc1 | -7 | 47 | -6 | -17 | 6 | 4 | 4 | i
CCCCNC(=O)c1ccccc1SCc1c(C)noc1C | 21 | -9 | -2 | -12 | -16 | 4 | 4 | i
Cc1ccc(NC(=O)CSC(N)=O)cc1Cl | nt | -2 | 37 | nt | 0 | 0 | 2 | i
CC(C)CNC(=O)NC(=O)CSc1nc2ccccc2n1CC(C)C | nt | -2 | -2 | -18 | -7 | -2 | -9 | i
CN1CCN(Cc2nc3c(c(=O)[nH]c(=O)n3C)n2CCc2ccccc2)CC1 | -15 | 1 | 14 | -15 | -5 | -9 | 3 | i
CCCCNC(=O)CSc1nc2cc3c(cc2c(=O)n1Cc1ccco1)OCO3 | 11 | -2 | -4 | -26 | -11 | 2 | -13 | i
CC(=O)N1CCN(C(=O)c2ccc(-c3cccc(C(F)(F)F)c3)o2)CC1 | 14 | nt | 29 | -9 | nt | 1 | -4 | nt
Cn1ccsc1=NC(=O)c1ccc(S(C)(=O)=O)c([N+](=O)[O-])c1 | -2 | -4 | 5 | -13 | 2 | 0 | -4 | i
NC(=O)c1ccc(C(F)(F)F)cn1 | -2 | 1 | -3 | -12 | 6 | -1 | 0 | i
COc1cc(S(N)(=O)=O)c(OC)cc1N | -7 | 7 | -2 | -12 | 9 | 0 | 5 | i
CCOc1ccccc1-c1cc(C(=O)N/N=C(\C)c2cccnc2)c2ccccc2n1 | 4 | -10 | 9 | -14 | 32 | -4 | 0 | i
Clc1cccc(Cl)c1OCCCCN1CCCCC1 | -3 | 7 | 4 | -6 | 16 | -1 | 1 | i
Oc1[nH]c2ccccc2c1C1=NCCCCC1 | 17 | 1 | -2 | -9 | -12 | -1 | -4 | i
Cc1ccc(C(C)C)c(OCC(=O)N2CCN(c3ncccn3)CC2)c1 | 6 | nt | nt | -10 | nt | 6 | 3 | nt
COCCn1c(=O)[nH]c2cc(C(=O)NCc3cccnc3)ccc2c1=O | -111 | -2 | -8 | -11 | -6 | -3 | -3 | i
C=CC(O)Cc1c(C)n[nH]c1C (stereo unspecified) | nt | 9 | -12 | -8 | -4 | 4 | 2 | i
CCOC(=O)N1CCN(C(=S)NCCOC)CC1 | -17 | -8 | -12 | -12 | 7 | 2 | 8 | i
O=C(NN1C(=O)/C(=C/c2cccs2)SC1=S)c1ccccc1 | nt | 16 | 8 | nt | 4 | 4 | 8 | i

Overlap with the part before: 2 entries, then new ones.
SMILES | Env fusion inh | eIF4H FP inh | CSC inhib | Yeast UUG start | PABP FP inh | MT1-MMP act inh | MT1-MMP act inh RFP | Rce1 inh | others
CCOC(=O)N1CCN(C(=S)NCCOC)CC1 | -17 | -8 | -12 | -12 | 7 | 2 | 8 | i
O=C(NN1C(=O)/C(=C/c2cccs2)SC1=S)c1ccccc1 | nt | 16 | 8 | nt | 4 | 4 | 8 | i
O=C(CSc1ccccc1)NCCCN1CCOCC1 | nt | 1 | -2 | -12 | -1 | -2 | -4 | i
O=C(NN1C(=O)C2C3C=CC(C4CC34)C2C1=O)c1ccc(Cl)cc1Cl (stereo unspecified) | -9 | -6 | -11 | -17 | 8 | -4 | -7 | i
N#Cc1cc2c(nc1SCc1ccc(Cl)cc1)CCCC2 | nt | 8 | 20 | -21 | -2 | 2 | -3 | i
c1ccc(-c2nnc(C(c3ccccc3)c3ccccc3)o2)cc1 | -12 | 0 | 2 | nt | 4 | -6 | 0 | i
O=[N+]([O-])c1cc2ccccc2nc1-c1ccccc1 | -21 | nt | nt | 0 | nt | 2 | 6 | nt
CC(=O)Nc1ccc(SCC(=O)Nc2ccccc2-c2ccccc2)cc1 | nt | 10 | nt | 10 | 7 | 0 | -5 | i
Cc1c(C(=O)N(C)c2cccc(Cl)c2)cnn1-c1ccccc1 | 0 | -11 | -9 | -16 | -5 | -1 | -6 | i
O=C(CCC(=O)c1cccs1)NC(c1ccccc1)c1ccccc1 | -39 | 0 | 3 | -14 | -1 | 2 | 1 | i
CCN(C[C@H]1N[C@@](C)(C(=O)OC)[C@H]2C(=O)N(C)C(=O)[C@@H]12)C(=O)Nc1ccc(OC)cc1 | -25 | nt | nt | -25 | nt | 2 | 5 | nt
O=C(O)CN1C(=O)/C(=C\c2cc(Br)ccc2OCc2ccc([N+](=O)[O-])cc2)SC1=S | -19 | 68* | 24 | -7 | 38* | 3 | 2 | i | eIF4H FP inh retest=75*;PABP FP inh retest=62*
O=C(CCCc1ccccc1)NCc1ccccc1Cl | -4 | 1 | -7 | -12 | 4 | -1 | 3 | i
CC(C)(C)c1ccc(-c2noc(CCC(=O)NCc3ccco3)n2)cc1 | 34 | 8 | 5 | nt | -3 | 1 | -11 | i
CCN(CC)S(=O)(=O)c1cc(C(=O)O)ccc1OC | 14 | -9 | -8 | 7 | 8 | 3 | 5 | i
CCOCCC(=O)Nc1cc(Cl)ccc1OC | 3 | 0 | -4 | -10 | -2 | -1 | 5 | i
Cc1ccccc1-c1csc(C(C)(O)c2ccccc2)n1 (stereo unspecified) | 12 | nt | nt | -21 | nt | -2 | -1 | nt
COCC(=O)N(C)C[C@H]1N[C@@](C)(C(=O)OC)[C@H]2C(=O)N(Cc3ccccc3)C(=O)[C@@H]12 | 23 | nt | nt | 11 | nt | 0 | 6 | nt
CCOc1ccc(C(C)=O)cc1COc1ccc(C)nc1[N+](=O)[O-] | 1 | -13 | -3 | -1 | -13 | 0 | 1 | i
O=[N+]([O-])c1cc2cccnc2c2ncccc12 | 12 | -8 | 37 | -24 | -6 | 2 | 0 | i
CCOC(=O)c1cc(C)sc1NC(=O)CN1CCN(C(=O)C2CCCO2)CC1 (stereo unspecified) | 1 | -5 | -11 | 8 | -4 | 1 | 2 | i
CCN1CCc2nc(NC(=O)CC(c3ccccc3)c3ccccc3)sc2C1 | nt | -11 | -15 | -23 | -17 | -4 | -1 | i
O=C(CC[C@H]1O[C@@H](n2ccc(=O)[nH]c2=O)[C@H](O)[C@@H]1O)NCc1ccccc1 | 11 | nt | nt | -22 | nt | 3 | 6 | nt
COc1ccc2c(c1)C(=O)Nc1cc(Cl)ccc1N2 | 4 | nt | -5 | -17 | nt | 3 | -1 | i
Cc1ccc(CCNC(=O)Cn2cccc2)cc1 | -101 | -1 | -5 | -8 | 1 | -2 | -3 | i
Cc1ccc2nc(NS(C)(=O)=O)sc2c1 | -41 | -7 | -9 | -8 | -12 | 0 | 3 | i
CC(C)COC(=O)C1[C@H]2C(=O)N(Cc3cccs3)C[C@]23C=C[C@H]1O3 (stereo partly specified) | nt | 3 | 2 | 19 | 5 | 1 | 4 | i
CCOC(=O)N1CCN(C(=O)CSc2ccc(-c3ccc(OC)cc3)nn2)CC1 | 19 | 1 | nt | nt | -5 | 1 | -7 | i
COCCN1C(=O)N[C@@H](CCc2ccccc2)C(C(C)=O)=C1C | nt | -1 | -13 | nt | 5 | nt | nt | i
CCOc1ccccc1N1CCN(C(=O)COc2ccc3c(C)cc(=O)oc3c2)CC1 | 13 | 2 | 6 | nt | 12 | -9 | -10 | i
CC(C#N)Sc1ccc(S(=O)(=O)N(C)C2CCCCC2)cn1 (stereo unspecified) | 3 | nt | -11 | -1 | nt | 2 | -2 | nt
Cc1csc(NC(=O)C2COc3ccccc3O2)n1 (stereo unspecified) | nt | -8 | -2 | nt | 0 | -3 | 1 | i

Reprinted from the part before: 2 compounds, then new ones.
SMILES | Env fusion inh | eIF4H FP inh | CSC inhib | Yeast UUG start | PABP FP inh | MT1-MMP act inh | MT1-MMP act inh RFP | Rce1 inh | others
CC(C#N)Sc1ccc(S(=O)(=O)N(C)C2CCCCC2)cn1 (stereo unspecified) | 3 | nt | -11 | -1 | nt | 2 | -2 | nt
Cc1csc(NC(=O)C2COc3ccccc3O2)n1 (stereo unspecified) | nt | -8 | -2 | nt | 0 | -3 | 1 | i
COC(=O)c1sc2nc(SCC(=O)N(C)c3ccccc3)n(N)c(=O)c2c1C | -10 | 0 | 26 | nt | 3 | -1 | 0 | i
CSc1ccccc1NC(=O)c1cnccn1 | nt | -1 | -7 | nt | -8 | -4 | 6 | i
Cc1ccc(C(=O)NCCSc2c(C)[nH]c3ccccc23)cc1[N+](=O)[O-] | 32 | 6 | 27 | -13 | -1 | 3 | -7 | i
Cc1cc(NC(=O)CSCC(=O)Nc2cccc(S(=O)(=O)N3CCCCCC3)c2)no1 | 32 | nt | -12 | -8 | nt | 5 | -9 | i
Cc1ccccc1OCC(=O)N/N=C/c1sc(=O)n(Cc2cccc(C(=O)O)c2)c1Cl | 12 | 12 | -9 | nt | 10 | -4 | 7 | i
CN(C)c1ccc(-c2c(-c3ccc4c(c3)OCO4)noc2-c2ccsc2)cn1 | nt | 6 | 28 | -6 | 3 | -7 | -2 | i
O=C(CSc1nnc(-c2ccncc2)n1Cc1ccco1)Nc1nccs1 | -8 | 1 | -3 | -18 | 96 | -3 | -4 | i | eIF4H FP inh retest=-1;PABP FP inh retest=13
COc1ccccc1N(C(=O)CNC(=O)c1ccco1)C(C(=O)NC1CCCC1)c1ccco1 (stereo unspecified) | 10 | 23 | -5 | nt | 12 | -2 | -2 | i
Cc1ccc(S(=O)(=O)O/N=C2/CCCc3occc32)cc1 | nt | 18 | -9 | -9 | 22 | 0 | 5 | i
CN(C)S(=O)(=O)c1cccc(C(=O)Nc2ccc(S(=O)(=O)N3CCCC3)cc2)c1 | 7 | 2 | -16 | nt | 2 | -4 | -3 | i
CCOc1ccc(NC(=O)/C(C#N)=C/c2cn(CC(=O)O)c3ccccc23)cc1 | 14 | -1 | nt | -14 | -1 | -2 | 3 | i
Nn1c(Nc2ccccc2)nc2sc3c(c2c1=O)CCC3 | nt | 6 | nt | -11 | 5 | -5 | -14 | i
CCn1ncc(Br)c1C(=O)Nc1cc(C(=O)OC)ccc1C(=O)OC | nt | 0 | nt | nt | -5 | -3 | 2 | i
O=C(CSc1ccc(Cl)cc1)NC(=O)NCc1ccco1 | 3 | 43 | 15 | nt | 6 | -4 | -3 | i
O=C(CSc1ccccn1)Nc1ccc2c(c1)OCCO2 | -52 | -8 | -8 | -14 | 0 | 2 | 1 | i
